Mtb bLac sens – beta-lactam sensitization of Mtb H37Rv. M. tuberculosis H37Rv growth with meropenem, percent inhibition; hits of this screen are not shown here. inhibition, % at 25 µM. 330,000 compounds, 0.27% hits. AID 434955;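 active means about 74% or more and at least 40 points above the plate without the antibiotic, then above 30% in a dose series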;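 further: growth measured after seven days incubation then overnight dye step; 0% = bacteria only wells and 100% = bacteria with antibiotic; twin plates without the antibiotic show which effects depend on it; some results filed as inactive read as strong as hits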
Mtb growth – M. tuberculosis H37Rv growth inhibitors, H37Rv strain (AID 1626); M. tuberculosis H37Rv growth inhibition; higher % means a stronger effect; inhibition, % at 10 µM, or IC50 in µM where a hit was titrated; 220,000 compounds, 0.95% hits;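 active means confirmed in a dose series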;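 further: bacteria incubated seven days before Alamar blue readout; 0% = bacteria only wells and 100% = bacteria with antibiotic wells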
Arbovirus inh – blocks arbovirus infection | arbovirus infection cell-based antiviral screen | 200,000 compounds, 0.37% hits | inhibition, % at 10 µM;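 active means inhibition from about 30%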;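 further: bluetongue infection of BSR cells; cell survival read as ATP light after 72 h; 0% = infected wells without compound and 100% = uninfected wells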
RecA intein inh – blocks M. tuberculosis RecA intein splicing; P9WHJ3; cell-free RecA intein splicing, fluorescence; inhibition, %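 (about 9 µM by stock and volumes)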; 290,000 compounds, 0.75% hits; AID 2221; in the data active means inhibition above about 30%;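 further: 0% = vehicle wells and 100% = reference inhibitor control wells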
Target sequence (P9WHJ3 whole entry, looked up): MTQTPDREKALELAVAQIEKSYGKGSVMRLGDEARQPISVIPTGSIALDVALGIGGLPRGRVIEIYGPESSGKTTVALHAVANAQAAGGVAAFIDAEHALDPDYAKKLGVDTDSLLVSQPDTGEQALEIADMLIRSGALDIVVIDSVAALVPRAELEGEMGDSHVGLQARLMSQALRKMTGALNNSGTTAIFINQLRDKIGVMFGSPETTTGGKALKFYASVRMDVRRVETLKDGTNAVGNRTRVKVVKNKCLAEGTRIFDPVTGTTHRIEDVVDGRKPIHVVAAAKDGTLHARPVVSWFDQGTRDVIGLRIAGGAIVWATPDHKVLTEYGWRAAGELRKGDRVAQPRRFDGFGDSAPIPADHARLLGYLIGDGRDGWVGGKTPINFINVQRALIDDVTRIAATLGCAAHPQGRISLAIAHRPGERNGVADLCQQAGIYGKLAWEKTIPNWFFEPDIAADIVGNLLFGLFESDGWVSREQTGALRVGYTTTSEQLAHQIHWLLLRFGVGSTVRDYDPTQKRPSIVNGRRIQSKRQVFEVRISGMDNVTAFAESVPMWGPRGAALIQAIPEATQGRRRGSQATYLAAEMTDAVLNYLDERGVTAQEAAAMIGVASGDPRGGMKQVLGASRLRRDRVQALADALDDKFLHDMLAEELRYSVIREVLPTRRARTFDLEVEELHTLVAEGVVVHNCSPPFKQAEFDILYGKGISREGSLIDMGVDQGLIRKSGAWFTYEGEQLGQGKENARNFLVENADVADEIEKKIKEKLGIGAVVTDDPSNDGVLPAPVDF
YopH PTP inh – blocks Yersinia enterocolitica YopH tyrosine phosphatase; fluorescence Ex485/Em525; inhibition, %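 (about 10 µM by stock and volumes)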; 140,000 compounds, 0.16% hits; AID 898;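 active means inhibition of 50% or more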;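 further: controls were vehicle for no effect and minimum signal wells for full effect; inactives centre near -20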
Arbovirus inh repeat – recorded beside Arbovirus inh, whose call it bears; inhibition, %; measured here: 10K subset replicate screen; many hits read low in the repeat;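 first of two repeat runs on a subset; 0% = infected and 100% = uninfected wells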
The depositor's hits bear a star; . = no result given.

SMILES | Mtb bLac sens | Mtb growth | Arbovirus inh | RecA intein inh | YopH PTP inh | others
Cc1ccc(-n2nc(C)c(NC(=O)COC(=O)c3ccccc3NCCO)c2C)cc1 | -18 | . | . | -7.6 | .
O=C(COc1ccccc1F)NNC(=O)c1cccc(-n2cccc2)c1 | -12 | . | . | 5.1 | .
O=C1NC(=O)N(CCC2=CCCCC2)C(=O)/C1=C/c1ccc(O)cc1 | -1 | -6% | -3 | -1.8 | -27
c1cncc(Nc2nc(-c3cccnc3)cs2)c1 | -11 | -5% | 6 | 1.9 | -15
O=S(=O)(c1ccc(NCC2CCCCC2)nc1)N1CCOCC1 | -1 | -6% | 1 | -1.1 | -21
COC(=O)c1c(CSc2ccc(Cl)cc2)noc1C(=O)NCc1ccco1 | -6 | 8% | 1 | 1.9 | -38
S=C(Nc1ccccc1Cl)NC1CCCCCC1 | -8 | 1% | 3 | 1.1 | .
O=C(CSc1ncnc2c1oc1ccccc12)Nc1ccccc1C(F)(F)F | 1 | -1% | -1 | -0.9 | -36
CCN(CC)CCNC(=O)C(=O)NCC1OCCN1S(=O)(=O)c1ccc([N+](=O)[O-])cc1 (configuration not stated) | 0 | -5% | -7 | -7.3 | -16
COc1cccc(CNC(=O)Cn2ccc3cc(S(=O)(=O)N4CCCCCC4)ccc32)c1 | 3 | . | . | 5.5 | .
COc1ccc(S(=O)(=O)NC(C)C(=O)N2CCCC2)cc1C (configuration not stated) | -10 | . | . | 2.1 | .
COc1ccc(CNC(=O)C2CCC(CNc3c(N4CCOCC4)c(=O)c3=O)CC2)cc1 (configuration not stated) | -5 | -1% | -6 | -1.3 | -42
O=C(C1CCCC1)N1CCC(CC2CC(c3cccc(Br)c3)=NO2)(C(=O)NCC2CCCCC2)CC1 (configuration not stated) | 58 | . | . | 3.7 | .
Cc1nn(-c2ccc(F)cc2)c(C)c1CN1CCN(CCc2ccccc2)C(CCO)C1 (configuration not stated) | -2 | -1% | -4 | -4.7 | .
NC(=O)c1c(NC(=S)Nc2ccc(F)cc2)sc2c1CCCC2 | -1 | 0% | 5 | -3.5 | .
CCOC(=O)CCNC(=O)Nc1ccc2nc(C)n(Cc3cccc(Cl)c3)c(=O)c2c1 | 8 | 8% | 4 | -3.4 | -18
OCCNc1ncnc2c1sc1nc(N3CCOCC3)c3c(c12)CCC3 | -5 | 3% | -10 | -2.9 | .
O=C(NC(=S)NC1CCSC1=O)c1cccc([N+](=O)[O-])c1 (configuration not stated) | -11 | . | . | -0.4 | .
CCCN(CC(=O)Nc1ccccc1C)C(=O)C1CC(=O)N(c2cccc(C)c2C)C1 (configuration not stated) | -17 | . | . | -0.3 | .
O=C(CNC(=O)c1sc2ccccc2c1Cl)NCc1cccnc1 | 2 | . | . | 3.9 | .
Cc1cccc(-n2cnc3cc(C(=O)N4CCCCC4)ccc32)c1 | 16 | 6% | -4 | -0.1 | -27
CC(C)CN1C(=O)C(=O)N(CC(=O)NCc2ccc3c(c2)OCO3)C1=O | -14 | . | 1 | 2.5 | -28
CCCN1CCN(CCCNC(=O)C2CCN(c3nnc(-n4c(C)ccc4C)s3)CC2)CC1 | 9 | . | . | -0.4 | .
O=C1c2ccccc2S(=O)(=O)N1Cc1c(F)cccc1Cl | -4 | . | . | 4.9 | .
CCn1c(=O)c(C(=O)CN2CCN(S(=O)(=O)c3cc(C)ccc3C)CC2)c(N)n(Cc2ccccc2)c1=O | 0 | 8% | -25 | 5.4 | -7

Reprinted from the part before: 4 compounds; new compounds follow.
SMILES | Mtb bLac sens | Mtb growth | Arbovirus inh | RecA intein inh | YopH PTP inh | others
CC(C)CN1C(=O)C(=O)N(CC(=O)NCc2ccc3c(c2)OCO3)C1=O | -14 | . | 1 | 2.5 | -28
CCCN1CCN(CCCNC(=O)C2CCN(c3nnc(-n4c(C)ccc4C)s3)CC2)CC1 | 9 | . | . | -0.4 | .
O=C1c2ccccc2S(=O)(=O)N1Cc1c(F)cccc1Cl | -4 | . | . | 4.9 | .
CCn1c(=O)c(C(=O)CN2CCN(S(=O)(=O)c3cc(C)ccc3C)CC2)c(N)n(Cc2ccccc2)c1=O | 0 | 8% | -25 | 5.4 | -7
COc1ccccc1C(=O)Nc1cc2ccccc2oc1=O | 14 | 2% | -4 | -0.8 | -20
CC1CCc2c(nc3ncnn3c2N2CCN(c3ccccc3)CC2)C1 (configuration not stated) | 9 | 7% | 1 | 0.4 | -32
CNC(C)C#Cc1ccc2sc3cc(OC)c(OC)cc3c(=O)c2c1 (configuration not stated) | 97 | 0% | . | -155 | .
COC(=O)C1=C(COc2ccccc2)NC(=O)NC1c1ccc(Cl)cc1 (configuration not stated) | -2 | -2% | . | -1.0 | .
O=C(N/C(=C\c1ccc2c(c1)OCO2)C(=O)N1CCOCC1)c1cccs1 | -7 | -9% | -3 | -1.5 | -15
CCCn1cc(S(=O)(=O)c2ccccc2)c(=O)c2cc(F)c(N3CCN(C)CC3)cc21 | 20 | . | . | 0.6 | .
COc1ccc2[nH]c(C)c(CCN(Cc3cccs3)C(=S)Nc3ccccc3)c2c1 | -7 | 21% | -15 | 13 | -29
CCCCn1c(N)c(N(CCOC)C(=O)C2CC(=O)N(c3cccc(SC)c3)C2)c(=O)[nH]c1=O (configuration not stated) | 0 | . | . | -2.4 | .
CC(NC(=O)Cn1cccc1C(=O)c1ccccc1)c1ccccc1 (configuration not stated) | -3 | . | . | 1.5 | .
Cc1sc2nc(COC(=O)Cc3ccccc3)[nH]c(=O)c2c1C | -7 | 0% | 10 | 3.9 | -20
CC(OC(=O)c1cc(=O)[nH]c2ccccc12)c1ccccc1 (configuration not stated) | -3 | -5% | 0 | 4.6 | 0
CC(C)CNC(=O)COc1ncnc2ccccc12 | -5 | -11% | 2 | -0.2 | -7
COc1ccc(CNC(=O)c2cccc(NC3=NC4CS(=O)(=O)CC4S3)c2)cc1 (configuration not stated) | -8 | . | . | 1.6 | .
CC1(C)CC(=O)C2=C(C1)OC(N)=C(C#N)C2c1ccc2c(c1)OCO2 (configuration not stated) | -1 | . | . | 3.0 | .
Cc1ccccc1C(=O)Nc1ccc(C(=O)N/N=C/c2ccc(F)cc2)cc1 | 5 | 10% | -4 | . | .
CC1CC(C)CN(C(=O)c2ccccc2Nc2ccc(SC(F)F)cc2)C1 (configuration not stated) | 0 | 9% | -31 | 19 | -27
Cc1ccc(C2CC(c3ccccc3)n3ncnc3N2)cc1 (configuration not stated) | 3 | -2% | 4 | 0.5 | -27 | Arbovirus inh repeat=2
CCOC(=O)c1c(N)sc(C(=O)N(CC)CC)c1C | -8 | -6% | -7 | 6.4 | .
Cn1cc(/C=N/NC(=O)c2ccc(C#N)cc2F)c2ccccc21 | 3 | -6% | -1 | -0.1 | .
CCOC(=O)C1=CSC2=NS(=O)(=O)CCN12 | 0 | -7% | 3 | 1.7 | -19 | Arbovirus inh repeat=6
CCN(CC)C(=O)c1ccc(NC(=O)CNC(C)c2cccc3ccccc23)cc1 (configuration not stated) | 3 | . | . | -2.0 | .
COc1cccc(NS(=O)(=O)c2ccc3c(c2)NC(=O)C(C)S3)c1 (configuration not stated) | 7 | . | . | 4.4 | .
CC(C)c1ccccc1OCC(=O)N1CCCCCCC1 | 5 | . | . | 7.2 | .
CCOc1ccc(NC(=O)CSc2nnnn2-c2ccc(C(N)=O)cc2)cc1 | 4 | . | . | -1.1 | .
CC1=C(C(=O)OCC(C)C)[C@]23C(=O)c4ccccc4[C@@]2(O1)OC(N)=C3C#N | -4 | 4% | -14 | 13 | 16

Random excerpt: six compounds from above, in no set order.
SMILES | Mtb bLac sens | Mtb growth | Arbovirus inh | RecA intein inh | YopH PTP inh | others
COC(=O)c1c(CSc2ccc(Cl)cc2)noc1C(=O)NCc1ccco1 | -6 | 8% | 1 | 1.9 | -38
COc1cccc(CNC(=O)Cn2ccc3cc(S(=O)(=O)N4CCCCCC4)ccc32)c1 | 3 | . | . | 5.5 | .
CCOC(=O)C1=CSC2=NS(=O)(=O)CCN12 | 0 | -7% | 3 | 1.7 | -19 | Arbovirus inh repeat=6
CC(C)c1ccccc1OCC(=O)N1CCCCCCC1 | 5 | . | . | 7.2 | .
NC(=O)c1c(NC(=S)Nc2ccc(F)cc2)sc2c1CCCC2 | -1 | 0% | 5 | -3.5 | .
CCCN1CCN(CCCNC(=O)C2CCN(c3nnc(-n4c(C)ccc4C)s3)CC2)CC1 | 9 | . | . | -0.4 | .

Remaining list, next part
SMILES | Mtb bLac sens | Mtb growth | Arbovirus inh | RecA intein inh | YopH PTP inh | others
COc1cccc(OC)c1C(=O)NC(C)C12CC3CC(CC(C3)C1)C2 (configuration not stated) | -2 | -8% | 43* | 0.8 | 12
NNC(=O)c1cccc(COc2cccc(Br)c2)c1 | -7 | 6% | -33 | . | 11
COc1ccc(-n2c(C)cc(C(=O)Cn3nc(C(=O)O)c4ccccc4c3=O)c2C)cc1 | 16 | 3% | 3 | 12 | -17
CCc1nnc(NC(=O)c2ccc(S(=O)(=O)N3CCCCC3C)cc2)s1 (configuration not stated) | -3 | -12% | -14 | -1.7 | -44
CCOC(=O)c1cc(-c2ccc(Cl)cc2)nc2c1c(C)nn2CCC#N | 1 | -4% | 1 | 1.2 | -34
CCOc1ccc(NC(=O)CN2C(=O)C3CC=CCC3C2=O)cc1 (configuration not stated) | -21 | -16% | 4 | 0.3 | -13
Cn1c(SCC(=O)Nc2cccc(F)c2)nc2c(c1=O)SCC2 | -9 | . | . | 1.7 | .
C=CCNCCOc1cccc(Br)c1 | 2 | 5% | -5 | -1.0 | -10
CC1CCCN(C(=O)Cn2c(=O)oc3ccccc32)C1 (configuration not stated) | 0 | -8% | 4 | 0.6 | -19
COc1ccc(NC(=O)CCNC(=O)Cn2cnc3ccccc3c2=O)cc1OC | -5 | . | . | -1.3 | .
O=Cc1ccc(OC(=O)CCCCC(=O)Oc2ccc(C=O)cc2)cc1 | 19 | . | . | 12 | .
CO/C([O-])=N/c1c[n+](-c2ccc(Cl)cc2)no1 | -5 | 1% | -4 | . | -41
Cc1ccc2nc(NC(=O)c3ccco3)sc2c1 | 6 | -1% | 7 | -5.9 | -23
COc1ccc(CNC(=O)CCCSc2ccccc2)cc1 | -6 | . | . | -0.9 | .
COCC(=O)N/N=C(\C)CC(=O)NCc1ccco1 | -1 | -1% | 3 | 1.7 | .
COc1ccc(OC)c(C2C(C(N)=O)=C(C)Nc3nc(-c4cccc(Cl)c4)nn32)c1 (configuration not stated) | 1 | 0% | -4 | 1.4 | -58
COC(=O)CSc1nc2cc3c(cc2cc1C)OCCO3 | 3 | -8% | -3 | . | -46
Cc1ccc(CN2C(=O)NC(=O)C3(Cc4c(nc5ccccn5c4=O)N4CCCCCC43)C2=O)cc1 (configuration not stated) | 100 | 22% | -10 | 7.8 | -14
O=C(Nc1cccc(-c2nn[nH]n2)c1)c1cccs1 | 3 | . | . | 0.1 | .
O=C(COc1ccccc1F)NCc1ccc(-n2cccc2)cc1 | 0 | . | -7 | -0.8 | .
Cc1ccc(NC(=O)c2ccsc2)cc1NS(C)(=O)=O | -8 | . | . | -2.5 | .
Cc1cc2cc(C(c3nnnn3Cc3ccco3)N3CCc4ccccc43)c(=O)[nH]c2cc1C (configuration not stated) | 84 | 5% | -3 | 16 | -42
Cc1ccccc1Cn1c2ccccc2c2cnn(CC(=O)NCc3ccccn3)c(=O)c21 | 0 | . | . | 6.4 | .
CCCCOC(=O)CSC1=C(C#N)C(c2cccnc2)C(C(=O)OCC)=C(c2ccccc2)N1 (configuration not stated) | 95 | -1% | 1 | 7.4 | .
Cc1ccc(-n2nnnc2-c2nc3ccccc3s2)cc1 | -5 | 17% | 2 | 0.5 | -27
Cc1nnsc1C(=O)N/N=C/c1ccc2ccccc2c1O | 50 | 5% | -11 | -1.1 | -25
O=C(CCN1C(=O)/C(=C/c2ccc(F)cc2)SC1=S)NCCCn1ccnc1 | 1 | . | . | 4.1 | .
O=C(CCCCCNC(=O)N1CCn2c1nc1ccccc12)NCc1ccccc1Cl | 2 | . | . | -1.7 | .
Oc1ccc(C(=S)N2CCCCC2)cc1Cl | -15 | -4% | 2 | -5.3 | -40

Structural class: those above containing a nitro group on carbon (two)
SMILES | Mtb bLac sens | Mtb growth | Arbovirus inh | RecA intein inh | YopH PTP inh | others
CCN(CC)CCNC(=O)C(=O)NCC1OCCN1S(=O)(=O)c1ccc([N+](=O)[O-])cc1 (configuration not stated) | 0 | -5% | -7 | -7.3 | -16
O=C(NC(=S)NC1CCSC1=O)c1cccc([N+](=O)[O-])c1 (configuration not stated) | -11 | . | . | -0.4 | .

Some of the compounds tested; the hit share may differ from the screen's.
